Bioassay records from PubChem BioAssay.
2A firefly: Primary qHTS Assay for Foot and Mouth Disease Virus Antivirals against NCGC Sytravon and CBC Compound Libraries: Firefly Luciferase Signal. 120,000 compounds, 0.23% hits. HEK cells with a luciferase reporter of 2A StopGo recoding. AID 1745856, 2022. Potency, µM (titrated, usually from 57.5 µM), for the others: at the highest dose signal change, negative = less light; active = well fitted falling curve with a large enough effect; inconclusive = small, poorly fitted or top-dose-only effect; inactive = no such curve, though single readings can be large or run the other way; further: nearly all actives have a fitted effect of over 60% in size; overnight with compound
StopGo RLuc: Primary qHTS Assay for Foot and Mouth Disease Virus Antivirals against NCGC Sytravon and CBC Compound Libraries: Renilla Luciferase Signal; 120,000 compounds, 0.32% hits; Potency, µM (highest dose often 57.5 µM), for inactives: at the top dose signal change, negative = less light; HEK cells with a luciferase reporter of 2A StopGo recoding; active means well fitted falling curve with a large enough effect; inconclusive means small, poorly fitted or top-dose-only effect; inactive means no such curve, though single readings can be large or run the other way; further: nearly all actives have a fitted effect of over 55% in size; overnight with compound
An asterisk follows results filed as active; ? = inconclusive; [ ] = remark or other dose. On the % scale 0 is the no-effect control and ±100 the full control effect; potency means the concentration at half of the fitted maximal effect.

structure | 2A firefly | StopGo RLuc
Cc1cccc(Cn2cccc(C(=O)Nc3ccc(F)cc3F)c2=O)c1 | ? | ?
Cc1cc(C)c(NC(=O)CCC(=O)N2Cc3ccccc3Oc3ncccc32)c(C)c1 | -3% | -6%
O=C(COc1ccccc1F)Nc1ccc2nc(SCC(=O)N3CCOCC3)sc2c1 | ? | ?
C=CCOc1ccc(/C=C(\C#N)c2nc3ccccc3[nH]2)cc1 | 221%[activator] | 67%[activator]
CCOC(=O)N(C)CC(=O)NC1CCCC1 | 29% | 27%
COCCCNC(=O)c1cc2cc(S(=O)(=O)N(C)C)ccc2n1C | 9% | 0%
CC(C)c1noc(-c2ccccc2OCC(=O)NC(C)c2ccc(Cl)cc2)n1 (configuration not stated) | -22% | -10%
CCC(Sc1nnc(CSc2ncccn2)n1-c1ccc(F)cc1)C(=O)OC (configuration not stated) | 12% | 7%
CC(C)c1cccc(NC(=O)CCn2cnc3c2c(=O)n(C)c(=O)n3C)c1 | -10% | -11%
CCN(CC)S(=O)(=O)N1CCN(CC(=O)Nc2c(C#N)c(C)c(C)n2Cc2ccco2)CC1 | -6% | 2%
CCCCn1nc(C(=O)Nc2ccccc2CC)c2ccccc2c1=O | 7% | 5%
Cc1cc(C(=O)CSc2nc3ccccc3o2)c(C)n1C1CC1 | 0% | -27%
COc1ccc(CN2COc3ccc4c(-c5ccccc5)cc(=O)oc4c3C2)cc1 | -15% | -9%
Cc1c(C)n2c3c(=O)[nH]c(=O)n(C)c3nc2n1CCNc1ccc(Oc2ccccc2)cc1 | -6% | -5%
CC(=O)N(Cc1ccccc1)Cc1cc2cc(C)ccc2[nH]c1=O | -1% | -17%
O=C(NCCCNC(=O)c1ccccc1Cl)c1nc2ccccc2c(=O)[nH]1 | 42%[activator] | 5%
COc1ccc(-c2nsc(NC(=O)c3oc4ccc(Cl)cc4c3C)n2)cc1 | -22% | -9%
Brc1ccc(-c2nnc(CN3CCN(c4ccccc4)CC3)o2)s1 | 24% | -13%
C=CCNC(=O)c1nc(-c2ccc3cc[nH]c3c2)no1 | 198%[activator] | 10%
N#Cc1ccc(OCC(=O)NNC(=O)C2CC(=O)Nc3cc(F)ccc32)cc1 (configuration not stated) | -1% | -3%
C=CCSc1nc2c(c(=O)n(C)c(=O)n2C)n1Cc1cccc(C)c1 | -30% | -32%
Cc1ccc2c(c1)c1c(c(=O)n(-c3ccccc3C)c(=O)n1Cc1ccccc1F)n2C | -8% | 1%
Cc1ccc(C(CNC(=O)c2cc(-c3ccccc3)on2)N2CCC(C)CC2)o1 (configuration not stated) | 0% | -7%
O=C(N/N=C/c1ccc(Oc2ccccc2)cc1)c1ccc(CSCc2ccccc2)cc1 | 0% | 20%
Cn1c(=O)c2c(nc(SCC(=O)NCc3ccc(F)cc3)n2Cc2ccccc2F)n(C)c1=O | 8% | -2%
CCCCn1nc(C(=O)N2CCN(c3ncccn3)CC2)c2ccccc2c1=O | 30%[activator] | 55%[activator]
Cc1cc(C)cc(NC(=O)Nc2ccc3nc(N4CCN(C)CC4)cc(C)c3c2)c1 | 4% | -8%
CC(C)CC(NC(=O)C1CCC(C)CC1)C(=O)OCC(=O)c1ccc(Cl)cc1 (configuration not stated) | -1% | -5%
COc1ccc(NC(=O)CSc2nc3ccccc3nc2Cc2ccc(C)cc2)cc1Cl | -6% | -4%
O=S(=O)(c1ccc(-n2cnnn2)cc1)N1CCN(c2cccc(C(F)(F)F)c2)CC1 | -6% | 8%

structure | 2A firefly | StopGo RLuc
Nc1nc(CN2CCN(C(=O)c3cccc(F)c3)CC2)nc2ccccc12 | 25% | -11%
c1ccc(CCNc2nc(-c3c[nH]c4ccccc34)cs2)cc1 | 24% | -20%
CCOc1ccc(C(=O)Nc2ccc(-n3nncc3-c3ccc(OC)cc3)cc2)cc1 | -14% | -5%
CCCOc1ccccc1C(=O)N1CCC(c2nc3ccccc3o2)CC1 | 5% | 10%
O=C(NCCCN1CCN(c2ccc(F)cc2)CC1)C1COc2ccccc2C1 (configuration not stated) | 2% | -7%
COc1ccc(NC(=O)C(C)N2Cc3ccccc3C2=O)cc1OC (configuration not stated) | -18% | -14%
Cc1cc(N2CCN(S(=O)(=O)c3ccccc3F)CC2)nc(C(C)C)n1 | ? | ?
Cc1ccc2c(=O)cc(C(=O)Nc3ccc(S(=O)(=O)N(C)c4ccccc4)cc3)oc2c1 | 6% | -9%
O=C(NCCc1ccc(C(F)(F)F)cc1)c1cccnc1 | 7% | -5%
Cc1cccn2cc(-c3cc4ccccc4oc3=O)nc12 | 92%[activator] | 4%
CCOC(=O)c1ccccc1NC(=O)c1sc2ccccc2c1Cl | 0% | -2%
CCCCC(=O)Nc1cccc(-c2nc3cc(C)ccc3o2)c1 | 35%[activator] | -1%
CCOC(=O)C(=O)Nc1ccc(OC)cc1 | 3% | 9%
CCN(C(=O)Cn1c(=O)oc2cc(S(=O)(=O)N3CCCCC3)ccc21)c1ccccc1 | -5% | 10%
CCOc1cc(CN2CCCCCC2c2cccc(F)c2)ccc1OCC(N)=O (configuration not stated) | -15% | -8%
CCCC(C)NC(=O)CSc1nc2cc(Cl)ccc2s1 (configuration not stated) | 0% | 4%
CCc1ccc(NC(=O)c2sc3nc(C)cc(C)c3c2NC(=O)c2ccccc2)cc1 | 33%[activator] | -6%
O=C(CSc1ccccc1)Nc1cc(Cl)ccc1C(=O)O | 42%[activator] | 16%
CC(C)CN(CC(C)C)C(=O)COC(=O)c1c[nH]c2ccccc12 | -19% | -9%
Cc1ccc(-n2c(/C=C\c3ccc(F)cc3)nc3ccccc3c2=O)cc1Cl | -11% | -8%
CC(=O)Nc1ccccc1-c1nc2ccccc2n(CC(=O)Nc2cccc(C(F)(F)F)c2)c1=O | -15% | -5%
CCc1ccc2oc(-c3ccc(NC(=O)c4cc5ccccc5o4)cc3)nc2c1 | 3% | -8%
CCOC(=O)c1cc(C)n(CC2CCC(C(=O)Nc3ccc(C)cc3)CC2)c1C (configuration not stated) | -22% | -9%
CN(C)C(=O)C1CCCN1S(=O)(=O)c1c(Cl)cccc1Cl (configuration not stated) | -7% | -5%
COc1ccc(OC)c(CCNC(=O)C(C)n2c(C)c3cnn(-c4ccccc4)c(=O)c3c2C)c1 (configuration not stated) | -12% | -12%
CCOC(=O)COc1ccc2c(=O)c(-c3ccc(OC)c(OC)c3)c(C)oc2c1 | -6% | -5%
Cc1ccccc1NC(=O)c1c(C)oc2ccc(O)c(CN3CCCCCC3)c12 | 0% | -11%
CCN(c1ccc(Cl)cc1)S(=O)(=O)c1nnc(NC(=O)c2ccccc2C)s1 | -1% | 55%[activator]
COc1ccccc1CNC(=O)CSc1nnc(C)c2c(C)n(-c3ccccc3)nc12 | -8% | -15%
COc1ccc(-c2nc3n(c2C(=O)Nc2cccc(C(F)(F)F)c2)CCS3(=O)=O)cc1 | -8% | 8%

Two entries from above, with two lines to a compound:
Second line of a record – 2A firefly | StopGo RLuc
CCc1ccc(NC(=O)c2sc3nc(C)cc(C)c3c2NC(=O)c2ccccc2)cc1
 : 33%[activator] | -6%
CCOC(=O)C(=O)Nc1ccc(OC)cc1
 : 3% | 9%

(list continues)
structure | 2A firefly | StopGo RLuc
Fc1cccc(NC(=S)NCCCCc2ccccc2)c1 | 13% | 44%[activator]
CCOC(=O)N1CCc2c(sc(NCc3ccc(N(C)C)cc3)c2C(=O)Nc2ccccc2OCC)C1 | -19% | 10%
N=c1nc(-c2ccccc2)ccn1O | 12% | 5%
O=C(NCCCN1CCN(c2ccccc2F)CC1)c1nnc(Cc2ccc(Cl)cc2Cl)o1 | -18% | -10%
COc1ccc(-c2cc3ccc(OS(=O)(=O)c4ccc(C)cc4)cc3oc2=O)cc1OC | 12% | 15%
Clc1ccccc1-n1nnnc1-c1ccncc1 | -1% | 2%
Cc1ccc(C)c(-c2[nH]c3ccccc3c2C=O)c1 | 118%[activator] | 24%
Cc1ccc2[nH]c(C)c(CC(=O)NCc3ccco3)c2c1 | -2% | 18%
Cc1ccc(NS(=O)(=O)c2ccc3[nH]c4c(c3c2)CCCCCC4)cc1 | -1% | -4%
CN(C)c1ccc(Nc2nc(-c3ccc([N+](=O)[O-])cc3)nc3ccccc23)cc1 | 12% | -17%
Cc1ccc(C(=O)NC2CCC(C)CC2)cc1C (configuration not stated) | 184%[activator] | 37%[activator]
O=C(Nc1noc2ccccc12)c1c(F)cccc1F | 105%[activator] | 9%
COc1cc(OC)cc(-n2nc(C(=O)Nc3ccc4c(c3)OCCO4)c3ccccc3c2=O)c1 | -7% | -2%
O=C(NCc1cccs1)c1cc(-c2ccncc2)nc2ccccc12 | 47%[activator] | 29%
Cc1cccc(-c2nc3cc(NC(=O)c4cccs4)ccc3o2)c1 | 139%[activator] | 9%
Nc1nccnc1C(=O)NCC1Cc2ccccc2O1 (configuration not stated) | 0% | 12%
O=C1N(Cc2ccc(Cl)cc2)CCCN1c1ccc(C(=O)N2CCc3ccccc32)cc1 | ? | ?
Cc1cc(=O)oc2cc(OCC(=O)Nc3ccc(S(=O)(=O)N(C)C)cc3)ccc12 | 7% | 0%
Cc1ccc(SCC(=O)NC2(C#N)CCCCC2)nc1 | 9% | 2%
CCc1nn(CC(=O)NCCCc2ccccc2)c(=O)c2cc3c(OC)cccc3n12 | 4% | -4%
CCOc1ccc(CCn2c3c(c(=O)[nH]c2=O)C(NC(=O)c2cccc(F)c2)(C(F)(F)F)C(=O)N3)cc1OCC (configuration not stated) | 2% | -10%
CCC(C)(C)C(=O)N1CCC(C(=O)NC2CCCCCC2)CC1 | 32%[activator] | 2%
O=C(c1ccc2c(c1)N(Cc1ccc(Cl)cc1)C(=O)c1ccccc1S2=O)N1CCN(c2ccccc2F)CC1 (configuration not stated) | -21% | 0%
Cc1ccc(CNC(=O)c2nc(-c3ccc(Cl)cc3)n3c2CCCCC3)cc1 | -28% | -12%
CCOc1ccc(NC(=O)c2nn(Cc3ccccc3)c(=O)c3ccccc23)cc1OC | 13% | -2%
COc1cccc(NS(=O)(=O)c2ccc3[nH]cc(C(=O)NCCc4ccc(C)cc4)c(=O)c3c2)c1 | -21% | -11%
CC(C)COc1ccc(C(=O)N(Cc2cccc(F)c2)C2CCS(=O)(=O)C2)cc1 (configuration not stated) | -10% | -4%
CCOc1ccc(CN2CCN(c3ncnc4sccc34)CC2)cc1 | 1.1µM* | 0.89µM*
Cn1c(=O)[nH]c(=O)c2c1nc(NCCCN1CCOCC1)n2Cc1ccc(F)cc1 | 9% | 4%
O=C(O)CC1(O)C(=O)Nc2cc(Br)ccc21 (configuration not stated) | 26% | 0%

structure | 2A firefly | StopGo RLuc
CN(C)CCCN(Cc1cccs1)C(=S)NCc1ccccc1 | -5% | 22%
O=C(COc1ccc2c(-c3ccccc3)cc(=O)oc2c1)N1CCN(CCO)CC1 | 11% | -1%
COc1ccc(CNC(=O)c2cccc(N3CCCS3(=O)=O)c2)cc1 | -19% | -6%
COc1ccc(S(=O)(=O)N(CCc2ccccc2)CC(=O)Nc2cc(C)ccc2C)cc1 | -17% | 0%
O=C(Cn1nc(-c2cccc([N+](=O)[O-])c2)c2ccccc2c1=O)NC1CCCCC1 | -8% | -17%
COc1ccc(CCNC(=O)CSc2n[nH]c(-c3ccccc3Cl)n2)cc1OC | -24% | 5%
Cn1c(=O)c2c(nc(CN3CCCCC3)n2CCCc2ccccc2)n(C)c1=O | 11% | 8%
Cc1nc2ccc(S(=O)(=O)NCc3ccccc3)cc2s1 | 0% | 56%[activator]
COc1ccc(-c2cn3c(n2)sc2cc(C(=O)NCC(C)c4ccccc4)ccc23)cc1 (configuration not stated) | 65%[activator] | -1%
O=C(Nc1ccc(Cl)cc1)C1C2C3CCC(C3)C12 (configuration not stated) | 188%[activator] | 9%
COc1ccc(Cn2ccc3nc(C)c(C(=O)Nc4ccc(OC)cc4)cc3c2=O)cc1 | 2% | 15%
COc1ccc(-c2noc(N3CCC(C(=O)Nc4ccc(F)cc4Cl)CC3)n2)cc1 | ? | -9%
CSc1cccc(NC(=O)Cn2c3ncccc3c(=O)n2-c2ccc(C)cc2)c1 | 19% | -6%
CCC1(C)CC(CC(=O)OC(C)CN(C)C)(c2ccccc2)CCO1 (configuration not stated) | -9% | 8%
COc1cccc(C(=O)NCC(=O)NCc2ccc3cc(OC)ccc3c2)c1 | -23% | 1%
COCCNC(=O)Cn1c(=O)n(CCCCCC(=O)Nc2ccccc2)c(=O)c2sccc21 | 57%[activator] | 4%
COc1ccc(-c2nc3cc(NC(=O)c4ccc(C)cc4)ccc3o2)cc1OC | 0% | -14%
CC(=O)c1ccc(NC(=O)CSc2nnc3ccc(-c4ccc(F)cc4)nn23)cc1 | -14% | -6%
CCc1ccc(C2CC(=O)Nc3c2c(=O)nc2c(C)cccn32)cc1 (configuration not stated) | 0% | -12%

Pulled by structure from above, 5 records:
structure | 2A firefly | StopGo RLuc
CCOc1ccc(CN2CCN(c3ncnc4sccc34)CC2)cc1 | 1.1µM* | 0.89µM*
CCN(CC)S(=O)(=O)N1CCN(CC(=O)Nc2c(C#N)c(C)c(C)n2Cc2ccco2)CC1 | -6% | 2%
c1ccc(CCNc2nc(-c3c[nH]c4ccccc34)cs2)cc1 | 24% | -20%
Cn1c(=O)[nH]c(=O)c2c1nc(NCCCN1CCOCC1)n2Cc1ccc(F)cc1 | 9% | 4%
Cn1c(=O)c2c(nc(SCC(=O)NCc3ccc(F)cc3)n2Cc2ccccc2F)n(C)c1=O | 8% | -2%

Only part of the results is shown. The share of hits here may be higher or lower than overall.
